# VACV Venus inh = qHTS for Stage-Specific Inhibitors of Vaccinia Orthopoxvirus: Venus Reporter Primary qHTS; Vaccinia virus Venus reporter expression, fluorescence; Potency, µM (series often up to 36.5 µM), without a hit: at the top dose activity change, negative = inhibition, actives largely listed as inhibitors; 0.46% of 330,000 active; active means well fitted inhibition curve with a large enough effect; inconclusive means small, poorly fitted or top-dose-only effect; inactive means no such curve, though single readings can be large or run the other way; tested in A549 cells; further: nearly all actives have a fitted effect of over 30% in size; inactives centre near -10
# VACV mCherry inh = qHTS for Stage-Specific Inhibitors of Vaccinia Orthopoxvirus: mCherry Reporter Primary qHTS; Vaccinia virus mCherry reporter infection, fluorescence; about a quarter of the inactives have no number; Potency, µM (titrated, usually from 36.5 µM), without a hit: at the highest dose activity change, negative = inhibition, hits mostly inhibitors; 0.63% of 310,000 active; AID 720579, 2013; active = well fitted inhibition curve with a large enough effect; inconclusive = small, poorly fitted or top-dose-only effect; inactive = no such curve, though single readings can be large or run the other way; tested in A549 cells; further: nearly all actives have a fitted effect of over 35% in size; inactives centre near -10
# Numbers without * were called inactive; i = inactive; ? = inconclusive; / = not tested or not shown; [ ] = remark or other dose. On the % scale 0 is the no-effect control and ±100 the full control effect; potency means the concentration at half of the fitted maximal effect. An unsorted share of the library; overall some 0.87% were active at least once.
# Start of the data: the first four records, to show the layout:
SMILES,VACV Venus inh,VACV mCherry inh
OC(C#CCCN1CCCCC1)(c1ccccc1)C1CCCCC1 (stereo unspecified),-11%,-14%
CC(C)(C)c1csc(NC(=O)c2ccccc2O)n1,?,?
COc1ccc(CCNc2nc(SCc3ccc(Cl)cc3)nc3ccccc23)cc1OC,-13%,-12%
Cn1c(=O)cc(OCCCC(=O)Nc2cccc(Cl)c2)c2ccccc21,2%,i

# All compounds of this part, from the first entry:
SMILES,VACV Venus inh,VACV mCherry inh
OC(C#CCCN1CCCCC1)(c1ccccc1)C1CCCCC1 (stereo unspecified),-11%,-14%
CC(C)(C)c1csc(NC(=O)c2ccccc2O)n1,?,?
COc1ccc(CCNc2nc(SCc3ccc(Cl)cc3)nc3ccccc23)cc1OC,-13%,-12%
Cn1c(=O)cc(OCCCC(=O)Nc2cccc(Cl)c2)c2ccccc21,2%,i
CCN(CC)S(=O)(=O)c1cccc(C(=O)Nc2nnc(C)s2)c1,-4%,16%
COc1ccc(NC(=O)c2cc(=O)c3cc(C)cc(C)c3o2)cc1,-13%,-9%
O=C(NC1CCCN(Cc2ccc(Cl)cc2)C1)c1c(F)cccc1F (stereo unspecified),-3%,-25%
COc1ccc(/C=C2\C(=O)NC(=S)N2C(=O)c2ccc(F)cc2)cc1,109%[activator],-13%
CC(=O)NS(=O)(=O)c1ccc(NC(=O)/C=C/c2ccccc2)cc1,4%,i
COc1ccccc1NC(=O)CSC(N)=O,-5%,-14%[1.46 µM]
Cc1[nH]c2ccccc2c1/C=C/c1nc2ccccc2c(=O)[nH]1,?,13µM*
Cc1ccc(S(=O)(=O)NC(C)C(=O)Nc2ccccc2C(=O)N2CCCC2)cc1 (stereo unspecified),-8%,0%
COc1ccc(Cn2c(C3CC3)nc3ccc(NC(C)=O)cc3c2=O)cc1,-28%,i
CC(C)CC(=O)NNC(=O)C(C)C,3%,-12%
CCC(=O)Nc1ccccc1Nc1cc(C#N)c(C#N)cc1[N+](=O)[O-],-15%,-8%
COC(=O)/C=C/C(=O)N1CCN(c2ccccc2C)CC1,-19%,-13%
CCCCn1c(=O)c2c(nc3n2CCCN3Cc2ccccc2)n(C)c1=O,-4%,-1%
O=C(Nc1ccccc1N1CCN(c2ccc(F)cc2)CC1)C12CC3CC(CC(C3)C1)C2,-7%,-12%
COC(=O)CCCCCCCCC(O)C[N+]1(C)CCOCC1 (stereo unspecified),-5%,-9%
O=C(Cc1ccc(F)cc1)NCCc1csc2nc(-c3ccc(Cl)cc3)nn12,-19%,-11%
Cc1ccc(S(=O)(=O)N2C[C@H]3[C@H]4C(=O)N(c5ccccc5)C(=O)[C@H]4C[C@H](OC(=O)NCc4ccccc4F)[C@@]3(O)C2)cc1,-7%,i
O=C(c1cccc(C(F)(F)F)c1)N1CCOC12CCN(c1ncc(C(F)(F)F)cc1Cl)CC2,?,/
O=C(Nc1ccc(C(=O)N2CCCCC2)cc1)c1ccccc1,-13%,-6%
CCOC(=O)c1c(N)sc(C(=O)N2CCCCC2)c1C,-18%,/
COc1ccc(Cl)cc1NC(=O)CN(C)C(=O)C1CC(=O)N(Cc2ccc(C)cc2)C1 (stereo unspecified),-5%,-7%
SMILES,VACV Venus inh,VACV mCherry inh
CC1(C(=O)NC2CCN(Cc3ccccc3)CC2)CCN1Cc1ccc(OC(F)(F)F)cc1 (stereo unspecified),-24%,-25%
COc1ccc(OCC(=O)Nc2cc(S(=O)(=O)N3CCCC3)ccc2Cl)cc1,-13%,-15%
CCSc1nnc(-c2ccc(C)cc2)c2ccccc12,?,?
CCc1ccc(CNCCc2ccc(F)cc2)cc1,-27%,-8%
CCc1cc(-c2nc(N)ncc2-c2ccc(Br)cc2)c(O)cc1OC,-8%,-11%
CC1CCN(C(=O)C2CCCCN2S(=O)(=O)c2cccc([N+](=O)[O-])c2)CC1 (stereo unspecified),-14%,i
Cc1ccc(NC(=O)CSCc2cc(=O)c3ccccc3[nH]2)c(C)c1,-15%,-15%
CCCCc1ccc(NC(=O)c2ccc3c(c2)CCN3S(=O)(=O)CC)cc1,?,?
CCOc1ncccc1C(=O)Nc1ccccc1F,0%,12%
CCCCN(C(=O)Cc1ccc2c(c1)OCCO2)c1c(N)n(CC(C)C)c(=O)[nH]c1=O,7%,-4%
CC1Cc2nc(SCC(=O)c3ccccc3)n(Cc3ccccc3)c(=O)c2S1 (stereo unspecified),-8%,-5%
CC(O)(C#CCN1CCCCCC1)c1ccccc1 (stereo unspecified),-2%,3%
CCOC(=O)c1ccccc1NC(=O)N1CCn2c(C)ccc2C1CC (stereo unspecified),-5%,/
CC(=O)c1c(C)[nH]c(C(=O)NC(C)c2ccccc2)c1C (stereo unspecified),?,?
COc1cccc(CNC(=O)Cn2nc(C)c3sc4ccccc4c3c2=O)c1OC,-23%,-29%
CN(C(=O)c1ccc(NC(=O)Cc2ccc(NC(=O)C3CCN(C(=O)C4CCC4)CC3)cc2)cc1)C1CC1,2%,-24%
Cc1cc(C)c(S(=O)(=O)NC(CC(=O)O)c2cccc([N+](=O)[O-])c2)c(C)c1 (stereo unspecified),-7%,-13%
Cc1noc(C)c1COc1ccccc1C(=O)NNC(=O)C(C)Oc1ccccc1F (stereo unspecified),-12%,i
COc1ccccc1NC(=O)C(C)OC(=O)CCCc1c[nH]c2ccccc12 (stereo unspecified),-12%,-1%
O=C(NC(Cc1ccccc1)C(=O)O)/C(=C\c1ccc(Cl)cc1)NC(=O)c1ccccc1 (stereo unspecified),11%,-5%
Fc1ccc(CNc2ccc(CNc3ncn[nH]3)cc2)cc1,-18%,-28%
Cn1ccs/c1=N\C(=O)Nc1cccc(C(F)(F)F)c1,-22%,-14%
CN(C)S(=O)(=O)N1CCC(n2cnc3cccnc32)CC1,0%,-5%
O=C(Nc1ccncc1)c1ccc(Cl)c(S(=O)(=O)N2CCCCC2)c1,-20%,-4%
CS(=O)(=O)c1ccc(C(=O)NC2CCCCC2)cc1,-15%,-19%
SMILES,VACV Venus inh,VACV mCherry inh
CCOC(=O)c1sc(=NC(=O)c2cccs2)n(C)c1C,-5%,i
N#C/C(C(=O)NCc1ccco1)=C1/SC(Cc2ccc(Cl)cc2)C(=O)N1c1ccccc1 (stereo unspecified),-12%,/
O=C/C=C/c1ccc(O)cc1,-13%,-19%
CNC(=O)N1c2ccccc2NC(=O)CC1C (stereo unspecified),13%,i
COc1ccccc1CC(=O)Nc1cc2oc3ccccc3c2cc1OC,-30%,?
O=C(Nc1n[nH]c(=S)s1)c1ccc2ccccc2c1,-28%,i
COc1ccc(OC)c(NC(=O)C2CCCN(S(=O)(=O)c3cccc4cccnc34)C2)c1 (stereo unspecified),-8%,-7%
Cc1ccc(C(=O)N(CCN(C)C)CC2CCCN(Cc3ccccc3F)C2)cc1C (stereo unspecified),-24%,-9%
COc1cc(C(=O)Nc2nc3ccccc3[nH]2)ccc1OC(F)F,-24%,-7%
Cc1ccc(C(=O)COC(=O)c2cccc(O)c2)s1,-15%,-16%
CSc1nc(C)c(Oc2ccccc2)c(=O)n1C,6%,-7%
COC(=O)[C@]12CCCCC=C1N(Cc1ccccc1)C(=O)[C@H](CC(=O)NCc1ccc(OC)c(OC)c1)C2,-10%,-21%
CC(=O)Nc1c(C)nn(-c2ccccc2)c1N1CCC(C(=O)NCc2ccc(F)cc2)CC1,-1%[7.34 µM],-3%[7.34 µM]
COc1ccc(N2CCN(C(=O)CCS(=O)(=O)c3ccc(OC)cc3)CC2)cc1,-7%,i
CCn1c(O)c(N=NC(=O)CNc2cccc(C)c2)c2ccccc21,-14%,-18%
Cc1cc(OCC(=O)OC(C)C(=O)NC2CC2)c(C(C)C)cc1Cl (stereo unspecified),-13%,-3%
CC1CCN(c2ncnc3c2cnn3-c2ccccc2)CC1,-8%,-9%
O=C(c1ccccc1)N1CCN(CC(O)COC2CCCCC2)CC1 (stereo unspecified),-5%,-13%
CC(=O)Nc1cc2c(c(Cl)c1Cl)-c1ccccc1C2=O,-4%,0%
CCCc1nc(N2CCOCC2)c(C#N)c2c1CCCC2,-8%,-3%
CCC(Oc1ccccc1OC)C(=O)Nc1ccc2c(c1)n(C)c(=O)n2C (stereo unspecified),-27%,-1%
C/C=C/C(=O)N[C@@H]1c2ccccc2CC[C@@H]1OCc1ccccc1,0%,i
C#CCOc1ccc(CNC[C@H]2O[C@@H](n3ccc(=O)[nH]c3=O)[C@H](O)[C@@H]2O)cc1,4%,18%
COc1ccccc1NC(=O)Nc1nc(C(N)CC(C)C)cs1 (stereo unspecified),-22%,?
O=c1c2cc(Cl)ccc2oc2nc3n(c(=O)c12)CCCS3,3%,/
SMILES,VACV Venus inh,VACV mCherry inh
CCC1CCCCN1CCCNC(=O)C1CCCN(c2nn3c(=O)cc(C)nc3s2)C1 (stereo unspecified),-2%[7.34 µM],-5%[7.34 µM]
Cc1n[nH]c(=S)n1/N=C/c1ccc(-c2ccccc2[N+](=O)[O-])o1,-30%,/
O=C(Cc1ccc(F)cc1)Nc1cccc2cccnc12,-19%,-2%
Cc1nnc(SCC(=O)N2CCN(C(=O)c3ccco3)CC2)n1-c1ccccc1,-9%,i
CC(C)Cc1cc(C(=O)Nc2cc(Cl)ccc2Cl)no1,4%,i
CCc1cnc2c(c1SCC(=O)NCc1ccc(C)cc1)c(=O)n(C)c(=O)n2C,-21%,-15%
CCOC(=O)c1ccccc1NC(=O)Cn1cc(C(=O)c2cccc(OC)c2)c(=O)c2ccc(C)nc21,2%,3%
CCN(CC)CCCNC(=O)Cn1cnc2ccc(S(=O)(=O)N3CCC(C)CC3)cc2c1=O,-15%,-8%
N#C/C(=C\c1ccc(-c2ccccc2[N+](=O)[O-])o1)C(N)=O,11%,-5%
Cc1c(C(=O)/C=C/c2cccs2)oc2ccc(F)cc12,?,-7%
Cc1noc(/C=C/c2ccco2)c1S(=O)(=O)N1CCC(C(=O)Nc2ccc(F)c(Cl)c2)CC1,-9%,-10%
CC1CCC(C(C)C)C(OC(=O)Cn2c(COc3ccccc3)[n+](C)c3ccccc32)C1 (stereo unspecified),?,?
Cc1ccc(C(=O)N2CCN(S(=O)(=O)c3cc(Br)ccc3Br)CC2)o1,-13%,i
CCOC(=O)c1c(/N=C/N(C)C)sc(C(=O)OC)c1C,-25%,-13%
CC(=O)Nc1ccc(S(=O)(=O)N2CCC(NC(=O)C(Cc3ccc(C)cc3)NC(C)=O)CC2)cc1 (stereo unspecified),-11%,i
CC1CN(C(NC(=O)c2ccccc2)C(Cl)(Cl)Cl)CC(C)O1 (stereo unspecified),-4%,i
CCN(Cc1ccccc1)S(=O)(=O)c1cc(Br)cc2c1N(C(=O)C1CC1)CC2,-17%,-22%
COC(=O)CNC(=O)CSc1nc2sccc2c(=O)n1-c1ccccc1,-7%,-15%
CCOC(=O)N1CCN(Cc2nc3cc(NC(=O)c4ccco4)ccc3n2CC)CC1,-5%,-19%
O=C(c1ccco1)c1cn(CC(=O)N2CCCC2)c2ccccc12,-9%,-1%
O=C(CCC1N=C2c3ccccc3N=C(SCc3ccc(Cl)cc3)N2C1=O)NC1CCCCC1 (stereo unspecified),-17%,-26%
CC(=O)c1ccc(NC(=O)COC(=O)c2ccccc2Nc2ccccc2)cc1,-18%,-2%
O=C(NCc1cccc2ccsc12)c1cccs1,-5%,-6%
COc1ccccc1N1CC(C(=O)NC2CCCCCC2)CC1=O (stereo unspecified),-3%,-4%
C/C=C/C(=O)N1CC2(CC(c3cccc(NC(=O)CC(c4ccccc4)c4ccccc4)c3)=NO2)C[C@H]1C(N)=O (stereo partly specified),?,?

# Quoted from above, three compounds:
SMILES,VACV Venus inh,VACV mCherry inh
O=C(NCc1cccc2ccsc12)c1cccs1,-5%,-6%
COc1ccccc1N1CC(C(=O)NC2CCCCCC2)CC1=O (stereo unspecified),-3%,-4%
C/C=C/C(=O)N1CC2(CC(c3cccc(NC(=O)CC(c4ccccc4)c4ccccc4)c3)=NO2)C[C@H]1C(N)=O (stereo partly specified),?,?

# Other records.
SMILES,VACV Venus inh,VACV mCherry inh
CCC1=C(OC(=O)N(CC)CC)N2C(=O)OC(=NCCOC)[C@]2(Cc2ccccc2)[C@H]2C1=CC[C@H]1C(=O)NC(=O)[C@H]12,-7%,i
C(=N\NC1=NCCCCC1)/c1c[nH]c2ccccc12,-11%,-4%
CNC(=O)C(=O)NCC1OCCN1S(=O)(=O)c1ccc2c(c1)OCCO2 (stereo unspecified),6%,i
CC(NC(=O)C(=O)NCCN1CCN(C(=O)c2ccccc2Br)CC1)c1ccccc1 (stereo unspecified),0%,i
O=c1c2cnn(-c3ccccc3)c2ncn1Cc1cccc(Cl)c1,-15%,i
CC1(C)CN(O)CCN1O,-12%,-14%
COc1cccc(CNC(=O)c2ccc(CN3CC(=O)N4CCCCC4C3=O)cc2)c1 (stereo unspecified),-10%,-8%
CCCC(=O)NC(=S)Nc1ccccc1C(=O)OC,-11%,-14%
COc1cccc(S(=O)(=O)N(C)C[C@H]2OCc3cnnn3CCCC(=O)N([C@H](C)CO)C[C@@H]2C)c1,-9%,i
S=C(Nc1ccccn1)NC1CCCCC1,-27%,-11%

# 4 entries from above, as labelled records:
Compound: S=C(Nc1ccccn1)NC1CCCCC1
  VACV Venus inh: -27% | VACV mCherry inh: -11%

Compound: CCC1=C(OC(=O)N(CC)CC)N2C(=O)OC(=NCCOC)[C@]2(Cc2ccccc2)[C@H]2C1=CC[C@H]1C(=O)NC(=O)[C@H]12
  VACV Venus inh: -7% | VACV mCherry inh: i

Compound: COc1cccc(CNC(=O)c2ccc(CN3CC(=O)N4CCCCC4C3=O)cc2)c1 (stereo unspecified)
  VACV Venus inh: -10% | VACV mCherry inh: -8%

Compound: CC(NC(=O)C(=O)NCCN1CCN(C(=O)c2ccccc2Br)CC1)c1ccccc1 (stereo unspecified)
  VACV Venus inh: 0% | VACV mCherry inh: i
